D2 ag – agonists of human D2 dopamine receptor (beta-arrestin) | DiscoveRx PathHunter D2 beta-arrestin, luminescence, 90 min; 100% = 57 uM dopamine signal | activation, % (concentration not given with the values) | actives 0.084% (n = 360,000) | AID 624465; in the data active = activation above about 40%; inconclusive = about 15% to 40%; inactive = below about 15%; note: compound concentration not given in the record; the text of the record calls up to 30% inactive
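DiscoveRx PathHunter D2 beta-arrestin cells (2,100/well) attached overnight, then compound-stimulated 90 min at 37 C in HBSS/10 mM HEPES/0.1% Tween-20 buffer; beta-galactosidase complementation read by luminescence after 1 h at ambient temperature. Dopamine 57 uM final (EC100) as control.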
CtBP-E1A inh – blocks the CtBP interaction with E1A; AlphaScreen GST-E1A/His-CtBP binding, 1536-well; active compounds read low; control for the full effect not named in the record; activity change, % (concentration not given with the values); actives 0.49% (n = 340,000); in the data active means activity change below about -65%; inconclusive means about -30% to -65%; inactive means above about -30%; note: % is set by controls: 0 for no effect and ±100 for the full control effect
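In 5 uL wells, 23 nL compound meets equimolar GST-E1A and His-CtBP (5X stock 125 nM each) for 2 h, 37 °C. Beads (5X, 50 ug/mL) then 1 h, 37 °C, dark.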
PINK1 modulator – changes PINK1 expression. actives 0.2% (n = 410,000). PINK1 immunofluorescence, high-content cytometry, 24 h. Potency, µM (series often up to 76.6 µM), for the others: at the top dose activation (PINK1 increase), hits mostly activators; active = well fitted activation curve with a large enough effect; inconclusive = small, poorly fitted or top-dose-only effect; inactive = flat fitted curve, though single readings scatter; cell line not stated here;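 note: potency is the fitted concentration of half-maximal effect; % of control where 0% means no effect; nearly all actives have a fitted effect of over 65% in size; a mitochondrial uncoupler was the plate control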
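Cells are seeded, rested 12 hours, then given compound at five concentrations or DMSO for 24 hours. After fixation, blocking and antibody staining, PINK1 amount and mitochondrial localization are scored; CCCP serves as control.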
Six1-Eya2 blk – inhibitors of human Six1/Eya2 interaction. actives 0.56% (n = 360,000). activity change, % (no concentration beside the values). Q15475+O00167. AlphaScreen GST-Six1/His-Eya2 binding, biochemical; active compounds read low; control for the full effect not named in the record. AID 651725; in the data active = activity change below about -65%; inconclusive = about -30% to -65%; inactive = above about -30%; note: % is set by controls: 0 for no effect and ±100 for the full control effect
Target sequence (O00167 whole entry, looked up): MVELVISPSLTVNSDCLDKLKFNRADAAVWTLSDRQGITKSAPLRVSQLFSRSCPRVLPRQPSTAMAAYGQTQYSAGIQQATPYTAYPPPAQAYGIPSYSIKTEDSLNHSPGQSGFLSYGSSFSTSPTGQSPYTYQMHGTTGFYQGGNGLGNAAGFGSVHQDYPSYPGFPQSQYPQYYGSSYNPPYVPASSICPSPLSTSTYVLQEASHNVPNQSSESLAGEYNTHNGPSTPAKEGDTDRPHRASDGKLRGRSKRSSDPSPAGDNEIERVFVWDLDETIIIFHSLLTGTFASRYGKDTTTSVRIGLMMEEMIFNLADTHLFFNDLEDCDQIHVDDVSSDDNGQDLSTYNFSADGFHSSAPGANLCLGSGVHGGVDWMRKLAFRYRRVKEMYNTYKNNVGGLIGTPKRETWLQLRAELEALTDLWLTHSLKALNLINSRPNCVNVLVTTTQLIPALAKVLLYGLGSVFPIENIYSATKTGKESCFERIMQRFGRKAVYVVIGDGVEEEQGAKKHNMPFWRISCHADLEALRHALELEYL
Target sequence (Q15475 whole entry, looked up): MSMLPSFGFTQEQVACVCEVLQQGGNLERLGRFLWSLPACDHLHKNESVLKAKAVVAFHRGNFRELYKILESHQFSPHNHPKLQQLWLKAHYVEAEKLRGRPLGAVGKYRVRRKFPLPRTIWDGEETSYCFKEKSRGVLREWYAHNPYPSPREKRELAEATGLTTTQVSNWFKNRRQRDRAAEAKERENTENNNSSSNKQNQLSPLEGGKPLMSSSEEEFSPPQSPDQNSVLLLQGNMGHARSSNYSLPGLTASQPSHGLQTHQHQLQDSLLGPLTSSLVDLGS
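AlphaScreen with GST-Six1 and His-Eya2 (5X mix: 250 nM and 500 nM), glutathione donor and nickel acceptor beads; buffer 50 mM Tris pH 8.0, 300 mM NaCl, 1 mM TCEP; 1 h at 37 C in the dark.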
TRPML1 agonist – human mucolipin-1 channel agonism | Q9GZU1 | TRPML1-expressing cells, Ca2+ dye fluorescence, FDSS; host cell line not named in the record; reference of the full effect not given here | activation, % (test concentration not listed) | actives 0.12% (n = 410,000) | AID 624414; in the data active = activation above about 50%; inconclusive = about 30% to 50%; inactive = below about 30%; note: 0% is about no effect; the text of the record puts the active cut at 80%
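Kinetic FDSS Ca2+ read in Tet-induced TRPML1-DL cells (ABD Ca8 dye plus quencher, 45-90 min RT loading): baseline, then compound, then 110 s agonist window; EC80 agonist 54-4 at 4uM final added afterwards for a 110 s antagonist window.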
D2 PAM – positive allosteric modulators of human D2 dopamine receptor | P14416 | DiscoveRx D2 beta-arrestin cells, luminescence, 90 min; 100% = 57 uM dopamine signal | potentiation, % (concentration not given with the values) | actives 0.23% (n = 360,000) | AID 624464; active = potentiation of 50% or more; inconclusive = 30% to 50%; inactive = 30% or less;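 note: compound concentration not given in the record; tested on top of an EC20 dose of dopamine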
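PathHunter beta-arrestin assay in DiscoveRx D2 cells. Compounds were added with an EC20 of dopamine (50 nM final) for 90 min at 37 deg C. Luminescence was read 1 h after detection reagent, with 57 uM dopamine as the EC100 control.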
An asterisk follows results filed as active; ? = inconclusive; / = no result given; & = joins results of further samples; [ ] = remark or other dose.

SMILES	D2 ag	CtBP-E1A inh	PINK1 modulator	Six1-Eya2 blk	TRPML1 agonist	D2 PAM
Cc1cc(C)c2c3c(sc2n1)C(c1ccccc1)C(C#N)=C(N)O3 (stereo not drawn)	0.4	-7.8	-1.4%[38.3 µM]	-2.6	6.0	4.5
COC(=O)Cn1cc([N+](=O)[O-])nc1C	5.0	/	-1.3%	-0.4	-0.3	-13.0
COc1ccc(-c2nnc(SCC(=O)N3CCCC(C)C3)o2)c(OC)c1 (stereo not drawn)	-1.3	1.2	/	0.7	0.8	4.2
CCOC(=O)c1ccc(NC(=S)N2CCCC(C)C2)cc1 (stereo not drawn)	-2.5	-0.6	2.9%	-7.3	-0.7	1.4
CCOC(=O)Cc1csc(NC(=O)c2ccc(NC(C)=O)cc2)n1	-1.2	-2.0	3.5%	-2.6	-0.5	0.0
Cc1ccc(CN2CCC(CNC(=O)C3CCCN(c4ncnc5c4nc4n5CCCCC4)C3)CC2)cc1 (stereo not drawn)	-2.7	-5.8	-0.2%	-0.5	-1.1	-28.5
O=C(NC1CCN(C(=S)NCCc2ccccc2)CC1)C1CCCCC1	8.0	-0.7	4.4%	10.4	1.4	-10.6
C=CCNC(=O)COc1c(C)ccc(C)c1C	-2.6	-1.4	2.4%	4.0	-0.3	-0.2
Cc1cc(C)cc(NC(=O)CC2NCCNC2=O)c1 (stereo not drawn)	-3.5	13.7	0.3%[38.3 µM]	2.6	0.7	-17.4
CCCCCC(=O)N1C[C@H](O)[C@@H](n2cc(-c3ccc(F)cc3)nn2)C[C@@H]1c1ccc(Cl)cc1	-2.4	-2.2	-0.6%	-0.1	1.1	-8.4
Fc1ccccc1-c1nc(-c2ccccc2)no1	-3.6	27.9	1.4%	36.2	-0.5	0.1
C/C(=N\Nc1cc(N2CCOCC2)ncn1)c1ccc(O)cc1	0.7	-5.2	-0.8%	-20.3	0.1	-2.3
COc1cccc(-c2cc(C(F)(F)F)nc(N3CCC(C)CC3)n2)c1	3.5	29.6	9.1%	47.9	0.5	1.9
O=C(CN1CCOCC1)Nc1ccc2c(c1)OCCO2	0.7	11.6	-0.4%	15.9	-0.1	-3.2
Cc1cc(Cl)ccc1NC(=S)N1CCN(C(=O)c2ccco2)CC1	-2.3	14.9	-0.1%	0.3	0.0	1.9
CCOc1cc(/C=C2\SC(=O)N=C2N)ccc1O	-9.6	?	4.8%	?	0.0	-30.1
CCC(=O)Nc1ccc(NC(=O)CSc2nnnn2CC)cc1C	-2.2	0.1	0.3%	0.0	0.3	-0.2
Cc1oc2ccc(O)cc2c1C(=O)OC(C)C	-1.8	6.2	-4.5%[38.3 µM]	-0.1	1.0	-14.6
O=C1C2C3C=CC(CC3)C2C(=O)N1/N=C/c1ccc(O)c(O)c1 (stereo not drawn)	-1.3	6.0	-1.2%	0.6	-0.1	16.9
O=C(NC1CCc2ccccc21)C12CN(Cc3ccccc3)CC1C(c1cccc([N+](=O)[O-])c1)=NO2 (stereo not drawn)	1.4	/	0.1%	-20.2	-0.6	-13.5
CCCCn1c(N)c(N(CCOC)C(=O)CSCc2c(C)noc2C)c(=O)[nH]c1=O	-6.3	2.3	1.1%	-1.3	0.3	-17.0
CC(=O)Nc1ccc(S(=O)(=O)NNC(=O)c2ccc([N+](=O)[O-])cc2)cc1	-0.3	-0.9	0.4%	6.5	-0.1	-0.8
COc1cc(OC)c(C(=O)Nc2ccccc2-c2ccccc2)cc1OC	-1.5	-6.1	2.1%	-10.9	2.3	?
O=C1c2ccccc2C(=O)N1CCCC(=O)N1CCc2ccccc21	-6.0	-11.1	1.7%	1.8	-0.2	2.7
O=C(O)/C(=C1/OC(=O)c2ccccc21)c1ccccc1	-2.7	8.5	1.5%	12.3	-0.6	-10.5
Cc1cc(C)cc(-c2nnc(SCC(=O)NCc3cccs3)o2)c1	-1.4	2.6	-2.7%[38.3 µM]	1.8	1.2	10.7
CCCS(=O)(=O)NC(=O)C1(C)CCN(C(=O)c2cccnc2Oc2ccccc2)C1 (stereo not drawn)	-7.5	0.0	0.7%	1.2	-0.6	-9.4
CC(C)C(NC(=O)c1ccccc1Br)c1ccccc1 (stereo not drawn)	1.0	8.1	-0.5%	-5.4	-0.5	-0.7
CC(C)Cn1c(SCc2nc3ccccc3c(=O)[nH]2)nc2ccccc2c1=O	-2.7	1.1	21.0%[38.3 µM]	-0.8	1.6	3.8
O=C(CCNC(=O)Cn1ccc2ccccc2c1=O)NCc1ccccn1	3.5	/	-0.1%	2.4	1.9	-0.7
Cc1cccnc1NC(=O)c1ccc(S(=O)(=O)N2CCC(C)CC2)cc1	-0.5	0.0	2.5%	11.9	0.5	7.4
O=C(CCNS(=O)(=O)c1cccc2nsnc12)N1CCc2ccccc21	-2.9	3.9	-1.9%	-6.2	0.0	-22.4
O=C(NCc1cccs1)C1CCCN(C(=O)Nc2ccccc2)C1 (stereo not drawn)	-2.8	5.0	-1.1%	-4.9	1.1	-2.9
O=C1OCCC1Sc1ncnc2sc3c(c12)CCC3 (stereo not drawn)	-6.2	-0.4	-1.1%	-6.0	-1.4	-8.6
CC(=O)Nc1ccc(OC(=O)c2c(-c3ccccc3Cl)noc2C)cc1	-8.1	12.3	-1.1%	-9.6	-0.6	-9.3
COc1ccc(OCC(O)CN2C(=O)NC(C)(C)C2=O)cc1 (stereo not drawn)	-1.1	2.9	-0.6%	5.8	2.0	-2.6
CCn1c(SCC(=O)Nc2ccccc2F)nc2c(c1=O)SC(C)C2 (stereo not drawn)	-0.2	3.4	1.1%	-8.1	3.3	-9.1
CCCCOC(=O)c1cc(Cl)c(O)c(OC)c1	0.6	-4.5	0.1%	-6.0	1.3	-3.0
COc1ccc(C(=O)NNC(=O)CSc2nc3c(c(=O)n(C)c(=O)n3C)n2C)cc1	-2.1	5.4	0.0%	1.2	-0.6	-0.8
Cc1c(Br)cc(C(=O)N2CCCC2)c(C)c1C	-1.0	-5.8	-2.8%	4.7	0.5	-2.9

Sorted by value in D2 ag (high to low): some entries from above
Structure | D2 ag
CC(=O)Nc1ccc(S(=O)(=O)NNC(=O)c2ccc([N+](=O)[O-])cc2)cc1 | -0.3
COc1ccc(OCC(O)CN2C(=O)NC(C)(C)C2=O)cc1 (stereo not drawn) | -1.1
CC(=O)Nc1ccc(OC(=O)c2c(-c3ccccc3Cl)noc2C)cc1 | -8.1

(continued)
SMILES	D2 ag	CtBP-E1A inh	PINK1 modulator	Six1-Eya2 blk	TRPML1 agonist	D2 PAM
O=C(NC1CC(=O)N(c2ccccc2)C1)C(=O)c1c[nH]c2ccccc12 (stereo not drawn)	2.9	-9.5	8.0%	1.1	0.1	7.2
Cc1cc(C)c(NC(=O)c2cccs2)c(C)c1NC(=O)c1cccs1	0.5	7.9	1.8%	8.4	-0.1	-7.0
Cc1cccc(NC(=O)CSc2nnc([C@H](C)NC(=O)OC(C)(C)C)o2)c1C	-4.8	5.1	0.9%	-0.9	-1.3	-3.7
COc1cccc(Cn2c(=O)ccc3ccccc32)c1	-5.3	/	2.8%	-0.9	0.7	-9.8
O=C(CCNC(=O)C1CCN(S(=O)(=O)c2ccccc2)CC1)NCc1ccncc1	-0.4	/	0.3%	5.2	0.9	-0.7
CN1CCN(c2ccc(-c3cc(NC=O)c4ncc(-c5ccc(F)c(Cl)c5)n4c3)cc2)CC1	8.9	?	-1.2%	?	2.1	-4.8
CC(C)CC(C(=O)NC1CCCC1)N(Cc1ccc2c(c1)OCO2)C(=O)c1snc(C(N)=O)c1N (stereo not drawn)	-3.0	14.0	2.0%	3.4	0.9	-0.6
S=C(Nc1ccccc1)N1CCN(c2ccc(N3CCOCC3)nn2)CC1	0.9	4.2	2.4%	9.7	0.6	-2.9
CCc1ccc(OCC(=O)NNC(=O)Cc2cccs2)cc1	-0.6	-20.9	-0.5%	-2.0	-1.5	-6.0
CCc1nnc(NC(=O)CSc2nnc(Cc3cccn3C)n2C)s1	-5.2	2.2	-1.1%	7.4	-0.2	-5.8
CC(C)Nc1nc(Oc2ccc(Cl)cc2)cc(C(F)(F)F)n1	1.9	10.3	14.5%	23.4	0.0	-7.2
CCN(c1ccc(OC)cc1)S(=O)(=O)c1nnc(NC(=O)COc2ccccc2)s1	4.8	/	-1.9%	-0.3	3.3	-5.5
Cc1ccccc1OCC(=O)NC(=S)Nc1ccc(Br)c(C)n1	0.3	9.6	-8.2%[38.3 µM]	-2.2	0.0	1.3
COCCN(C(=S)Nc1cccc(OC)c1)C1CCN(C(C)=O)CC1	-0.8	2.4	3.6%	5.4	0.8	-1.9
COCCOC(=O)C1=C(C)N=c2s/c(=C\c3cccs3)c(=O)n2C1c1cccs1 (stereo not drawn)	-3.4	-0.6	11.7%	0.5	-0.4	0.9
O=C(COC(=O)c1ccco1)Nc1cc(S(=O)(=O)N2CCOCC2)ccc1Cl	-3.6	-4.5	-1.0%	0.6	0.6	-4.8
Cn1nc(C(F)(F)F)c2cc(NC(=O)OCC(C)(C)C)sc21	-1.4	1.1	1.4%	-2.5	0.4	-2.4
CC(C)Cc1ccc(-c2cc(=O)[nH][nH]2)cc1	-2.4	/	0.3%	0.4	-0.7	-5.7
COc1cc(NC(=O)c2cc3ccccc3cc2O)c(OC)cc1Cl	12.4	/	?	-0.4	1.7	-10.3
Cn1nccc1C(=O)OCC(=O)Nc1ccc(S(N)(=O)=O)cc1	-4.5	-0.1	-0.7%	-0.5	0.3	-3.7

Single records (already shown). Order of values: D2 ag, CtBP-E1A inh, PINK1 modulator, Six1-Eya2 blk, TRPML1 agonist, D2 PAM
Listed for Cc1cc(C)c(NC(=O)c2cccs2)c(C)c1NC(=O)c1cccs1 : 0.5, 7.9, 1.8%, 8.4, -0.1, -7.0
Listed for S=C(Nc1ccccc1)N1CCN(c2ccc(N3CCOCC3)nn2)CC1 : 0.9, 4.2, 2.4%, 9.7, 0.6, -2.9

(cont.)
SMILES	D2 ag	CtBP-E1A inh	PINK1 modulator	Six1-Eya2 blk	TRPML1 agonist	D2 PAM
O=C(CSc1nc(-c2ccc(F)cc2)cs1)Nc1ccccn1	-3.4	2.3	-1.0%	1.2	1.8	-1.2
OC[C@@H]1CN(Cc2ccc(F)cc2)C[C@H](n2cnc3c(N4CCN(c5ccccc5)CC4)ncnc32)O1	4.8	?	0.7%	?	-0.8	9.6
O=C(CCN1C(=O)c2ccc([N+](=O)[O-])cc2C1=O)Nc1nccs1	7.5	/	0.9%	14.3	1.6	8.7
CC(=O)Cc1nsc(NC(=O)c2c(-c3ccccc3Cl)noc2C)n1	-1.6	-19.8	6.2%[38.3 µM]	-9.3	0.6	-7.0
Cc1ccc(NC(=O)CN(c2ccc(Cl)cc2)S(=O)(=O)c2cc([N+](=O)[O-])ccc2Cl)c(C)c1	14.1	/	0.8%	-8.2	1.8	10.4
COc1ccc(/C=N/n2c(-c3cccs3)n[nH]c2=S)cc1	4.1	-18.8	-3.2%	-6.5	0.4	-12.2
O=C(CSc1ncn[nH]1)Nc1nsc(-c2ccccc2)n1	-1.6	11.9	-2.2%	-3.0	-0.4	-2.9
CC(C)C[C@@H](CN=[N+]=[N-])N1CCN(CC(C)C)CCC1=O	-0.1	-9.6	-0.3%	-15.4	-0.2&-0.6	-12.7
CN(C(=O)c1ccccc1Cl)c1ccccc1C(=O)NCc1ccccc1	2.1	3.6	-0.1%	1.3	0.9	-18.5

Compound activity from PubChem.

Compounds were not picked by outcome; 1.3% or so of the library scored in one or more.
